Rango release inh = qHTS Assay for Inhibitors of RanGTP induced Rango (Ran-regulated importin-beta cargo) - Importin beta complex dissociation; Snurportin-1 (Homo sapiens) + GTP-binding nuclear protein Ran (Homo sapiens) + Importin …; Biochemical FRET Rango-importin beta, RanGTP-induced dissociation; Potency, µM (series often up to 46.1 µM), for the others: at the top dose activity change, negative = inhibition; 340,000 compounds, 0.071% hits; AID 540253, 2011; active means falling FRET ratio curve, often poorly fitted, with flat reads before Ran was added; inconclusive means other falling curves, or compound fluorescence or quenching; inactive means flat or rising ratio curve;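 note: potency is the fitted concentration of half-maximal effect; % of control where 0% means no effect; nearly all actives have a fitted effect of over 45% in size; -100% = wells without RanGTP and RCC1; the record marks most hits as doubtful in a second field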
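Quantitative HTS using a FRET biosensor: 0.1 uM Rango, 0.25 uM importin beta, 0.6 uM Ran, 2 mM GTP, 0.2 uM RCC1 final, PBS with DTT, Tween-20 and BSA. Post-read taken 45 min after Ran addition.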
GLA inh pH 4.5 = qHTS Assay for Inhibitors of Human alpha-Galactosidase at pH 4.5. Alpha-galactosidase A (Homo sapiens), P06280. purified enzyme, 4-MU-alpha-Gal fluorescence, pH 4.5. activity change, negative = inhibition, % at 105 µM. 230,000 tested, under 10 active. AID 1467, 2008; inconclusive = small, poorly fitted or top-dose-only inhibition, or a rising curve; inactive = flat fitted curve, though single readings scatter; no compound was filed as active;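 note: 0% = full activity with enzyme and -100% = basal without enzyme; dose as in the result columns while the protocol names 77 µM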
miR-21 reporter = qHTS Assay for Modulators of miRNAs and/orActivators of miR-21. Potency, µM (titrated, usually from 38.3 µM), for inactives: at the highest dose reporter change, positive = more light. 340,000 tested, under 10 active. HeLa miR-21 FLuc reporter, luciferase, 48 h. AID 2288, 2010; active = well fitted rising curve with a large enough effect; inconclusive = small, poorly fitted or top-dose-only effect; inactive = no such curve, though single readings can be large or run the other way;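 note: % of control where 0% means no effect; miR-21 action dims this reporter so a rising signal means less miR-21 action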
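Using DMEM plus 10% FBS, HeLa miR-21-FLuc cells are incubated with test compounds (final up to about 40uM) for 48 hours; firefly luciferase signal is then imaged following reagent-mediated lysis.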
Rango-impB inh = qHTS Assay for Inhibitors of Rango (Ran-regulated importin-beta cargo) - Importin beta complex formation. Rango CFP/YFP FRET sensor + importin beta, 45 min. Importin subunit beta-1 (Homo sapiens), Q14974. Potency, µM (titrated, usually from 92.2 µM), inactives show top-dose inhibition of complex formation. AID 540263, 2011. 340,000 compounds, 0.031% hits; active = rising FRET ratio curve, often small or poorly fitted; inconclusive = mostly compound fluorescence or quenching in the first reads; inactive = flat curves in all reads;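 note: potency is the fitted concentration of half-maximal effect; 0% = DMSO wells and 100% = buffer wells lacking importin beta; nearly all actives have a fitted effect of over 15% in size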
Target sequence (Q14974 whole entry, looked up): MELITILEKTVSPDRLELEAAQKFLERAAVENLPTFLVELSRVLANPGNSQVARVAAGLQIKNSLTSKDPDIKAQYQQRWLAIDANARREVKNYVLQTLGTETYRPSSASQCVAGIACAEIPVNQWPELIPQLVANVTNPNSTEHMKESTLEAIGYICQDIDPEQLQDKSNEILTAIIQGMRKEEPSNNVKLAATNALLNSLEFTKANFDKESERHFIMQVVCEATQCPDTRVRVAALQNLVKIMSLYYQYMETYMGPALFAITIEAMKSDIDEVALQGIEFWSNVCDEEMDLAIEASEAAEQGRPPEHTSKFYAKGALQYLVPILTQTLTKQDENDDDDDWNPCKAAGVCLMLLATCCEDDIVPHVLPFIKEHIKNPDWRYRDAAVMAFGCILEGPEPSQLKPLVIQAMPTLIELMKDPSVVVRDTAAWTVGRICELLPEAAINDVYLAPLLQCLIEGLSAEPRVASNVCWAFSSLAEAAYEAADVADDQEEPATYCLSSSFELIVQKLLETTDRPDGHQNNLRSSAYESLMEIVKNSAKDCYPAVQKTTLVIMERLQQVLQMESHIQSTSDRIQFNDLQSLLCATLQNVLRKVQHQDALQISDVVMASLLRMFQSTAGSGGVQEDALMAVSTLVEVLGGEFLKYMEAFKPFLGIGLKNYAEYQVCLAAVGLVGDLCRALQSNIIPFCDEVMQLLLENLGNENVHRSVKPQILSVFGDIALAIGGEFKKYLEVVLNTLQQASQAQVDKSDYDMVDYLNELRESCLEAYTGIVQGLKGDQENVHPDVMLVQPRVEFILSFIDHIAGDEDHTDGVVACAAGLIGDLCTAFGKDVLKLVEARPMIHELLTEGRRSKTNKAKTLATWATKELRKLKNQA
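Inhibition scored from the CFP 486 nm/YFP 530 nm FRET ratio 45 min after adding 0.125 microM importin beta to 50 nM Rango biosensor preincubated 5 min with compound (room temperature, PBS with DTT, Tween-20, BSA). No-importin wells as positive control.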
The depositor's hits bear a star; ? = inconclusive; . = not tested or not shown; [ ] = dose if it differs, or a comment. Not all compounds are listed (hit frequency here may not be typical).

SMILES	Rango release inh	GLA inh pH 4.5	miR-21 reporter	Rango-impB inh
N#Cc1c(-c2ccco2)cc(-c2ccccc2)[nH]c1=O	?	?	2%	?
Cc1cc(SCc2cc(=O)[nH]c3ccccc23)nc2ccccc12	12%	0	-11%	1.1%
CC(C)CC(NC(=O)OC(C)(C)C)C(=O)NC(C(=O)N1CCCC1C(N)=O)C(C)C (centres undefined)	5%	-3	-1%	0.2%
CCOC(=O)c1ccc(NC(=O)COc2cc(=O)n(CC)c3ccccc23)cc1	2%	-1	4%	1.5%
Cc1ccc(S(=O)(=O)C2(C(=O)NC3CCCCC3C)CC2)cc1 (centres undefined)	-9%	4[21.1 µM]	-1%	1.7%
COc1ccc(CCC(=O)Nc2ccc(OC)c(S(=O)(=O)N3CCCCC3)c2)cc1OC	13%	.	.	-0.2%
COCC1CCCCN1C(=O)c1ccc2oc(CCCc3ccccc3)nc2c1 (centres undefined)	-8%	.	-11%	-5.0%
COc1cc(NS(=O)(=O)c2ccc(Cl)cc2)c(C(=O)O)cc1OC	3%	-6	-4%	0.1%
COc1ccc(C(=O)NCc2nnc(SCC(=O)Nc3cccc(C(F)(F)F)c3)o2)cc1OC	2%	-9	-1%	2.5%
COc1ccc(S(=O)(=O)NCCC(=O)N2CCCN(C)CC2)cc1	10%	.	.	-1.8%
O=c1oc(-c2ccccc2NS(=O)(=O)c2ccc3ccccc3c2)nc2ccccc12	-4%	3	-10%	-3.2%
CCOC(=O)C(C)N1C(=O)S/C(=C\c2ccc(-c3ccccc3C(=O)O)o2)C1=O (centres undefined)	?	.	-3%	-10%
Fc1ccc2cc(CCO[C@H]3CCCCO3)ncc2c1	14%	.	.	-0.5%
O=S1(=O)CCC(NC(=S)NCCNC(=S)NC2CCS(=O)(=O)C2)C1 (centres undefined)	-5%	-4	2%	-0.3%
O=C(NCc1ccccc1)C1=C[C@@H](c2ccc3c(c2)OCO3)C[C@@H](OCc2ccc(CO)cc2)O1	-8%	.	.	-1.6%
Cc1ccc(-n2ncc3c2CCCC3NC(=O)CCc2cnn(C)c2)cc1C (centres undefined)	31%	.	0%	7.1%
COCCNC(=O)CN(C(=O)Cn1nnc2ccccc21)c1cccc(C)c1C	2%	6	-2%	-3.9%
Cc1onc(-c2ccccc2Cl)c1C(=O)OCC(=O)N1CCCc2ccccc21	24%	2	-2%	-1.1%
Cc1ccc(C)c(OCC(=O)NNC(=O)c2ccc(NC(=O)C3CC3)cc2)c1	7%	.	-7%	-1.6%
CC1=NN(c2ccc(C)c(C)c2)C(=O)/C1=C/c1ccc2c(c1)n(C)c(=O)n2C	1%	5	-7%	?
c1ccc(C(c2ccccc2)N2CCN(C(c3ccccn3)c3nnnn3C3CCCC3)CC2)cc1 (centres undefined)	1%	3	1%	0.5%
COC(=O)Cc1ccc(NC(=O)c2ccc(NC(=O)c3ccco3)cc2)cc1	0%	-3	-5%	5.4%
O=C(/C=C/c1cccc(C(F)(F)F)c1)N1CCN(c2ccccn2)CC1	12%	.	9%	1.9%
COc1ccc(C(=O)N2CCCC(C(=O)O)C2)c2ccccc12 (centres undefined)	1%	.	-4%	-1.5%
CCn1c(-c2ccccc2Cl)nn(CC(=O)Nc2ccccc2C)c1=S	?	2	-2%	-4.3%
Further entries
SMILES	Rango release inh	GLA inh pH 4.5	miR-21 reporter	Rango-impB inh
O=C(Nc1cccc([N+](=O)[O-])c1)N1CCc2ccccc2C1	9%	.	-38%	-3.3%
CC(C)N(O)C(=O)NC(C)(C)C	-3%	-2	-2%	-0.3%
CCOc1cc(/C=C2\NC(=S)N(c3c(C)n(C)n(-c4ccccc4)c3=O)C2=O)ccc1O	?	-14	-4%	?
CC1CCN(CCNC(=O)C2CCCN(S(=O)(=O)c3cccc4nonc34)C2)CC1 (centres undefined)	-4%	3	0%	?
NC1=NC(=O)/C(=C/c2cc(Br)c(O)c(Br)c2)S1	?	.	-1%	?
CC(=O)NC1=C(NC2CCS(=O)(=O)C2)C(=O)c2ccccc2C1=O (centres undefined)	31%	0	15%	-0.5%
CCN(CC)CCCNc1nc(N)c([N+](=O)[O-])c(N2CCCCCC2)n1	-16%	.	-5%	-0.3%
Nc1ccc(NC2C[C@@H](C(=O)O)NC2=O)cc1 (some centres undefined)	1%	-4	0%	2.9%
Cc1onc(-c2ccccc2)c1C(=O)Nc1ncc([N+](=O)[O-])s1	-10%	.	?	0.8%
CCOC(=O)/C(C#N)=C/c1cn(CCC(=O)O)nc1-c1ccccc1	-13%	-6	-7%	0.8%
O=C(NC(=S)NNC(=O)c1cccs1)c1ccccc1	-5%	.	-17%	-2.5%
CN1CCN(C(c2ccc(F)cc2)c2nnnn2Cc2cccs2)CC1 (centres undefined)	0%	3	-3%	5.7%
Cc1cc(C)nc(SCc2ccc(C(=O)N/N=C/C3CCCCC3)cc2)n1	-2%	8	-4%	-5.0%
COc1ccc(S(=O)(=O)N2CCC(NC(=O)C(Cc3cccc(OC)c3OC)NC(C)=O)CC2)cc1 (centres undefined)	-4%	0	-1%	-0.7%
O=C1CCc2cc(S(=O)(=O)NCc3ccc(Cl)cc3)cc3c2N1CC3	17%	.	0%	1.9%
O=C(Oc1ccc2ccc(=O)oc2c1)c1ccc([N+](=O)[O-])cc1	-19%	.	0%	?
O=C(NC(=O)c1ccccc1)Nc1ccccc1O	-13%	.	-35%	0.5%
COc1ccc(CCn2c(-c3cc([N+](=O)[O-])cc([N+](=O)[O-])c3)nc3nc4ccccc4nc32)cc1OC	?	0	-3%	?
CC1CC(C)(C)Nc2ccc(N=O)cc21 (centres undefined)	11%	2	?	-0.8%
Cc1ccc(C(C(=O)NCC2CCCO2)N(C(=O)c2snc(C(N)=O)c2N)c2ccccc2)o1 (centres undefined)	2%	.	11%	0.0%
CC(C)(C)c1cc(C2=CSC3=NCCN23)cc(C(C)(C)C)c1O	0%	.	21%	0.3%
C=CCN(CC(=O)NCc1ccc(OC)cc1)C(=O)c1csnn1	-2%	5	-7%	0.4%
Cc1cc(C)c2sc(N(CCCN(C)C)C(=O)COc3ccc(Cl)cc3)nc2c1	-13%	-8	9%	-4.5%
COCCCN(CCCN)Cc1ccco1	-3%	6	-4%	2.3%
O=C(CCS(=O)(=O)c1ccccc1)Nc1ccc(S(=O)(=O)Nc2ncccn2)cc1	21%	.	-2%	3.0%
The listing continues.
SMILES	Rango release inh	GLA inh pH 4.5	miR-21 reporter	Rango-impB inh
O=S(=O)(O)c1cc(O)c2c(O)c(N=Nc3cc(Cl)ccc3O)c(S(=O)(=O)O)cc2c1	?	.	13%	?
Cc1ccc(NC(=O)CCc2c[nH]c3ccccc23)nc1	6%	.	6%	-2.5%
COc1ccc(S(=O)(=O)N(C)c2ccc(C(=O)N3CCOCC3)cc2)cc1	-5%	-1	-7%	-2.0%
O=C(Nn1cnc2ccccc2c1=O)c1ccccc1[N+](=O)[O-]	10%	3	-18%	-1.2%
CCN1CCN(C(=O)c2cc3c(=O)oc4ccc(C)cc4c3s2)CC1	10%	0	-2%	1.1%
COc1ccccc1OCCSc1nc2ccc([N+](=O)[O-])cc2s1	0%	-5	-19%	-0.2%
CCCCOc1ccc(-c2c(C(=O)Nc3ccccc3)c(C)[nH]c(=S)c2C#N)cc1	8%	-14	-4%	-2.0%
CCOc1ccc(NC(=O)CSc2ccc(-c3ccccn3)nn2)cc1	-1%	3	-2%	2.2%
CSc1cccc(NC(=O)CN(C)S(=O)(=O)c2ccc(C)cc2)c1	1%	2	-1%	-0.1%
COc1ccc(C(=O)N/C(=C\c2ccc(OC)c(OC)c2)C(=O)N2CCCCC2)cc1	-15%	.	-2%	2.8%
Cn1c(SCc2ccccn2)nnc1-c1ccncc1	3%	3	-5%	-2.3%
CC1SCC(NC(=O)c2ccccc2Cl)CS1 (centres undefined)	12%	3	-62%	1.0%
Clc1cc(Br)ccc1OCCn1ccnc1	0%	0	-2%	0.2%
CCN1C(=O)c2ccccc2Sc2ccc(C(=O)NCCC(C)C)cc21	3%	.	-3%	?
NC(Cc1ccc2nsnc2c1)C(=O)O (centres undefined)	2%	.	.	2.3%
CC(=O)Nc1ccc(CN2CCN(C3CCCC3)C(CCO)C2)cc1 (centres undefined)	0%	4	-1%	0.0%
N#Cc1ccccc1	5%	.	.	2.2%
COc1ccccc1COC(=O)CN1C(=O)NC2(CCCCC2C)C1=O (centres undefined)	-11%	.	.	5.6%
O=C(CCS(=O)(=O)c1ccccc1)N1CCCc2ccccc21	-3%	.	-23%	3.6%
Cc1ccnc(NS(=O)(=O)c2ccc(NC(=O)C(C)(C)C)cc2)n1	-9%	2	1%	3.5%
COc1ccc(Cl)c2sc(N3CCN(C(C)=O)CC3)nc12	-11%	.	-8%	0.2%
Oc1[nH]c2ccccc2c1/C=N/c1nccs1	-10%	-8	-17%	-2.8%
COc1ccc(C(=O)C2CCCN(C(=O)C3CCOCC3)C2)c(C)c1 (centres undefined)	-13%	9	3%	-5.2%
Cc1ncc2c(n1)NC(=O)NC2	10%	.	.	4.1%
COc1ccccc1-n1cc([C@@H]2C[C@H]3CN(c4ccccc4)C(=O)[C@]34CCCN24)cn1	0%	-9	-1%	-0.2%
Remaining list, next part.
SMILES	Rango release inh	GLA inh pH 4.5	miR-21 reporter	Rango-impB inh
CC1(C)Cc2nc3oc4c(=S)nc[nH]c4c3cc2CO1	-3%	4	-55%	?
CCOC(=O)c1c2c([nH]c(=S)c1C#N)CCCC2	-23%	9	-14%	?
CCOc1ccccc1NC(=S)N1C2CCC1CC(NC(=O)NC13CC4CC(CC(C4)C1)C3)C2 (centres undefined)	5%	-14	-3%	3.8%
Cc1cccc(NC(=O)Nc2cccc(C)n2)n1	-2%	-7	-26%	-3.6%
O=C(NC(=S)N1CCN(c2ccc(Cl)cc2[N+](=O)[O-])CC1)c1cccs1	2%	4	-8%	0.6%
CCN(C(=O)c1cccc(S(=O)(=O)N(C)C)c1)C12CC3CC(CC(C3)C1)C2	-2%	.	1%	3.7%
Cc1ccc(C(=O)C2=C(O)C(=O)N(Cc3ccco3)C2c2ccc(N(C)C)cc2)o1 (centres undefined)	-22%	.	-1%	-0.2%
Oc1c(CN2CCCCC2)ccc2cccnc12	7%	.	.	7.6%
O=C1c2cccc(OCc3ccc(F)cc3)c2CCN1Cc1ccc(F)cc1	0%	-5	27%	-0.4%
CCc1ccc2[nH]c(=O)c(C(c3nnnn3Cc3ccco3)N3CCC(C)CC3)cc2c1 (centres undefined)	-7%	-6	-2%	-0.1%
CC(=O)c1ccc(NC(=O)c2ccc(N3CCCC3=O)cc2)cc1	-1%	.	.	-0.9%
Cc1nccn1CCOc1ccccc1Cl	1%	.	-7%	-2.8%
CCN(CC)c1nc(-c2ccccc2)nc2c1sc(=S)n2CC	5%	4	-1%	-3.7%

Source: PubChem
